Screening data: PubChem, several laboratories
HIV Env fusion: inhibitors of HIV Env-mediated cell fusion; inhibition, % at 12.3 µM; 1.1% of 360,000 active; HeLa-JRFL Env/CEM21 cell fusion, luciferase;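 active means mean replicate inhibition score of at least 50 and every replicate individually at or above 50; inconclusive means only one of the two criteria met; inactive means mean below 50 and not all replicates reaching 50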;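 further: 0% = plate neutral controls and 100% = maraviroc near 300 nM; one replicate is shown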
CSC inhib: cancer stem cell inhibition | cancer stem cell-like cells viability, luminescence | inhibition, % at 7.5 µM | 1.1% of 300,000 active | AID 2717;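 active means mean at 75% or more and at least half the replicates too; inconclusive means mean and replicates disagree; tested in HMLE shEcad cells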;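 further: 0% = median of negative and 100% = median of positive control wells; the first replicate is given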
Yeast UUG start: alters start codon recognition fidelity in yeast; S. cerevisiae UUG-firefly luciferase reporter, luminescence/redox ratio; AID 602363; 0.13% of 350,000 active; activity score, % at 18.7 µM;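 active means replicate mean at a twofold rise or more, about +100% in these data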;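 further: firefly luciferase made from a UUG start codon reports start codon fidelity; reporter light over untreated wells divided by growth signal over untreated wells; some hits fall short of that in this replicate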
Rce1 inh: yeast Ras-converting enzyme inhibition. Q03530. yeast membranes, quenched prenylated peptide cleavage fluorescence. calls only. 0.27% of 290,000 active;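 active means fall in fluorescence gain of 50% or more versus controls, with final raw signal at or below 3038400; inconclusive means same 50% fall but final raw signal above 3038400; inactive means fall in fluorescence gain under 50%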;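 further: plate controls were neutral control wells for no effect and wells lacking membranes for full effect; tested at 10 µM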
Target sequence (Q03530 whole entry, looked up): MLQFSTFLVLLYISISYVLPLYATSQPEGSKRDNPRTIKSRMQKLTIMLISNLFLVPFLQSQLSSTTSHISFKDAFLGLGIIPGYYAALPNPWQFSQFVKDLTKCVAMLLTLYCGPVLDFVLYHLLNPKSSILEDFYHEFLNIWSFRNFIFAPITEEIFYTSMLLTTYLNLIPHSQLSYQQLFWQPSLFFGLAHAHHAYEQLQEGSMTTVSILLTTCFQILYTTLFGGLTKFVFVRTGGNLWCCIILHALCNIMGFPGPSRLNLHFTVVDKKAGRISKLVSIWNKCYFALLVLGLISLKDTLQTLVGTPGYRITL
eIF4H inh: inhibitors of RNA binding by human eIF4H; Q15056; eIF4H fluorescence polarization binding assay; inhibition, % at 35 µM; 0.94% of 290,000 active; AID 2012;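 active means 50% or more with normal probe brightness, or confirmed in later tests; inconclusive means above 50% with abnormal brightness, or retests that disagree; inactive means below 50% or failed in later tests; about a fifth of its hits are not listed in these tables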;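 further: calls also rest on retests at 20 µM and on dose response follow-up; 0% = protein and probe with vehicle and 100% = probe without protein; strong numbers were not always called active; many hits fall short of the cut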
PABP polyA inh: blocks human PABP binding to poly(A) RNA | fluorescence polarization | inhibition, % at 35 µM | 1% of 290,000 active;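 active means 50% or more with normal probe brightness, or confirmed in later tests; inconclusive means above 50% with abnormal brightness, or retests that disagree; inactive means below 50% or failed in later tests; about a fifth of its hits are not listed in these tables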;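 further: calls also rest on retests at 20 µM and on dose response follow-up; controls were probe without protein and protein plus probe with vehicle; some compounds called inactive have numbers as strong as hits; many hits fall short of the cut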
MT1-MMP act inh: inhibitors of human MT1-MMP activation; P50281; HT1080 RFP-PRO-GFP cells, GFP/RFP ratio fluorescence, overnight; percent of plate control window, DMSO zero; GFP/RFP ratio change, % at 20 µM; 0.061% of 360,000 active; AID 651647;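 active means GFP/RFP ratio change of at least 30% with cell ATP level not reduced by more than half and red fluorescence within 50% of control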; further: strong numbers were not always called active
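Material – HT1080 RFP-PRO-GFP cells · Control set – DMSO wells and RFP-L50D-GFP cells · Incubation – overnight cell settling, then overnight compound exposure, 37 °C, 5% CO2 · Compound dosing – single-point 20 µM compound, 1% DMSO · Read-out – GFP/RFP fluorescence ratio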
MT1-MMP act inh RFP: also measured in MT1-MMP act inh; calls as there; RFP signal change, %; measured here: RFP expression control read;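 0 = vehicle wells; hits needed this value within 50% of zero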
An asterisk follows results filed as active; i = inactive; u = inconclusive; x = no result given. An excerpt. The share of hits here may be higher or lower than overall.

Each structure is followed by: HIV Env fusion	CSC inhib	Yeast UUG start	Rce1 inh	eIF4H inh	PABP polyA inh	MT1-MMP act inh	MT1-MMP act inh RFP
- O=C(CCSc1nnc(-c2ccco2)o1)Nc1ccc(Cl)cc1
    27	10	-19	i	-6	-4	2	4
- CCO[C@H]1OC(C(=O)NCc2nc3ccccc3[nH]2)=C[C@@H](C)[C@@H]1CCCO
    3	-1	-29	i	-8	2	3	1
- CCCCCCC1(C)NC(=S)N(c2ccccc2)N1 (centres undefined)
    3	11	x	i	-1	-2	0	2
- Cn1nnnc1NCc1cccc(Cl)c1Cl
    -14	-17	-7	i	2	-8	2	3
- Cc1ccccc1OCCCn1c(=O)sc2ccccc21
    x	-6	-10	i	-7	-5	-9	-4
- Cc1cc(O)cc(O)c1C(=O)Cc1ccccc1
    4	1	x	i	-7	4	2	-1
- CNS(=O)(=O)c1ccc(NC(=O)Nc2ccc3c(c2)OCO3)cc1
    -9	-9	-23	i	12	-11	2	1
- COc1ccc(Cn2cc([N+](=O)[O-])nc2C)cc1[N+](=O)[O-]
    -1	-13	x	i	0	1	4	8
- CCOC(=O)c1sc(NC(=O)CSc2nnnn2-c2ccccc2)c(C(=O)OCC)c1C
    x	14	-3	i	-3	-14	5	5
- CCC(=O)NC(c1ccccc1)c1c(OC(C)=O)ccc2ccccc12 (centres undefined)
    -1	1	x	i	1	-2	-17	-33
- COc1ccccc1N1CCN(S(=O)(=O)CCNC(=O)CC2CCCCC2)CC1
    x	-6	4	i	x	x	2	-8
- Cc1ccc(-n2nc3c(=O)n(C(C)C(=O)NCc4ccco4)nc(C)c3c2C)cc1 (centres undefined)
    9	14	-5	i	-12	5	2	-9
- CCOC(=O)c1cc2sccc2n1CC(=O)Nc1ccc(OC)c(OC)c1
    x	-6	x	i	2	8	5	0
- OCC1(Cc2cccc(F)c2)CCN(Cc2ccc3cccc(F)c3n2)CC1
    -17	1	-13	i	5	-3	-5	-1
- Cc1ccc(NC(=O)C2CCN(S(C)(=O)=O)CC2)cc1C
    x	x	-5	i	-8	-8	3	5

Each structure is followed by: HIV Env fusion	CSC inhib	Yeast UUG start	Rce1 inh	eIF4H inh	PABP polyA inh	MT1-MMP act inh	MT1-MMP act inh RFP
- CN(CCNS(=O)(=O)c1ccc2c(c1)oc(=O)n2C)Cc1ccccc1
    -7	-14	-21	i	-14	-4	4	7
- CCCn1c(SCC(=O)NCc2ccco2)nc2c1c(=O)n(C)c(=O)n2C
    -10	-2	-5	i	4	2	1	3
- CCOc1ccc2cc(C#N)c(SCC(=O)N3CCOCC3)nc2c1
    -172	-14	-9	i	0	-2	5	2
- O=C(Nc1ccc2c(c1)OCO2)C1CC(=O)N(c2ccc(F)cc2)C1 (centres undefined)
    26	-13	x	i	5	-3	0	2
- Cc1c(NC(=O)C(C)OC(=O)c2cccs2)c(=O)n(-c2ccccc2)n1C (centres undefined)
    -67	7	-15	i	-4	9	0	-2
- CCOc1ccc(Br)cc1S(=O)(=O)Nc1ccc(C(=O)Nc2ccccc2OC)cc1
    7	15	0	i	-2	-10	3	-7
- c1nc(NC2CCCC2)c2[nH]cnc2n1
    4	1	-10	i	-18	-12	-5	-5
- O=C(C1CCCN(Cc2ccc(F)cc2)C1)N1CCCCC1 (centres undefined)
    2	-7	-10	i	7	14	-3	0
- COCCn1c(SCC(=O)N2CCCC2)nnc1-c1ccco1
    -8	-2	-8	i	-4	-2	-2	2
- O=C(NC1CCCC1)C1CC(=O)N(c2ccccc2)C1 (centres undefined)
    -3	-17	-4	i	-3	-10	0	1
- Cc1sc(NC(=O)C2CCCC2)c(C#N)c1C
    x	-8	-13	i	12	-5	-4	2
- Cn1nnnc1SCC(=O)Nc1ccccc1C(=O)NCc1ccccc1
    x	-11	-13	i	-2	4	3	2
- CCN(CC)C(=O)[C@H]1CC(CC(=O)NCCC2=CCCCC2)C(=O)N2CCc3c([nH]c4ccccc34)[C@]12C (some centres undefined)
    3	-5	-3	x	x	x	-7	-13
- CC(=O)NCCNc1nc2cc(-c3ccccc3C)sc2c(=O)n1C
    12	x	-2	x	x	x	0	-1
- COc1cc(/C=N/N=C/c2cc(OC)c(O)c(OC)c2)cc(OC)c1O
    -9	-7	x	i	1	13	8	3

Each structure is followed by: HIV Env fusion	CSC inhib	Yeast UUG start	Rce1 inh	eIF4H inh	PABP polyA inh	MT1-MMP act inh	MT1-MMP act inh RFP
- CC(C)(CC(=O)O)CC(=O)N1CCCN(c2nc3ccc(Cl)cc3s2)CC1
    10	-1	x	i	4	4	6	-5
- O=C(c1ccco1)N1CCN(c2ccc(S(=O)(=O)N3CCCC3)cc2)CC1
    -39	12	-3	i	-9	5	15	3
- COc1cc(/C=C/C(=O)Nc2cccc(S(=O)(=O)NC3=NCCCCC3)c2)ccc1OCC#N
    -8	20	1	i	x	x	x	x
- COC(=O)c1nnn(CC(=O)NC(=O)Nc2cccc(C)c2C)c1C(=O)OC
    x	-8	-9	i	9	9	6	-3
- Cc1cc(C)n(CC(O)CN2c3ccccc3Sc3ccccc32)n1 (centres undefined)
    -182	18	-6	i	-2	-2	3	2
- c1ccc2c(c1)CC1(CCCC1)n1nnnc1-2
    8	-18	4	i	-12	-5	4	-2
- COc1ccc(/C=C/C(=O)C(C)(C)C)cc1OC
    -11	10	-12	i	-7	23	-3	-2
- COC(=O)C1=C(C)N(Cc2ccccc2)C(=NCc2ccc3c(c2)OCO3)N[C@H]1c1ccccc1
    -25	5	-2	x	x	x	-2	1
- C[C@@H]1O[C@@H](O[C@@H]2[C@@H](O)[C@H](OCCc3ccc(O)c(O)c3)O[C@H](CO)[C@H]2OC(=O)/C=C/c2ccc(O)c(O)c2)[C@H](O)[C@H](O)[C@H]1O
    7	12	-10	x	x	x	3	2
- Cn1cc(/C=C/c2cc[n+](C)cc2)c2cc(F)ccc21
    x	-8	3	i	u	u	-153	-22
- COc1ccc([N+](=O)[O-])cc1COc1ccc2c(-c3ccccc3)cc(=O)oc2c1
    x	3	x	i	-5	5	-4	0
- COc1ccccc1-c1noc(-c2ccncc2)n1
    x	-1	-29	i	-13	-4	-3	-1
- CC1Cc2ccccc2N1S(=O)(=O)c1cccc(C(=O)N2Cc3ccccc3CC2C(N)=O)c1 (centres undefined)
    43	-30	14	x	x	x	2	2
- CCOC(=O)CN1CCC(c2cc(-c3ccc(Cl)cc3)n[nH]2)CC1
    15	4	-4	i	6	2	22	-3
- CC1(C)Cc2cccc(OCC(N)=O)c2O1
    x	-11	-24	i	-6	2	0	3

Each structure is followed by: HIV Env fusion	CSC inhib	Yeast UUG start	Rce1 inh	eIF4H inh	PABP polyA inh	MT1-MMP act inh	MT1-MMP act inh RFP
- Cc1ccccc1Nc1nccc(N(C)C)c1C#N
    15	2	-20	i	-11	-5	0	4
- COCCNC(=S)Nc1cc2oc3ccccc3c2cc1OC
    -20	-4	-29	i	2	0	-2	0
- CCN1CCCC(OC(=O)c2cc(-c3ccccc3Cl)nc3ccccc23)C1 (centres undefined)
    -2	1	x	i	-10	3	0	1
- Cc1ccc(Sc2ncccc2COC(=O)Nc2ccccc2)cc1
    x	0	-17	i	-1	4	-7	-10
- O=C(Nc1nccs1)c1cc2sccc2n1Cc1ccc(Cl)cc1
    -4	1	-25	i	-10	0	1	0
- C/C(=N/NC(=O)c1cccs1)c1cccc(N)c1
    -30	0	-12	i	-1	-8	2	3
- CCC(=O)Nc1ccc(NC(=O)CSc2nnnn2C2CCCC2)cc1C
    2	x	-19	i	32	8	3	1
- O=C(c1ccccc1)N1CCN(C(=O)N2CCCCC2)CC1
    x	x	-3	i	2	4	0	-2
- Cc1cc(C(=O)CSc2nnnn2-c2ccccc2)c(C)n1CCc1ccccc1
    -32	-8	-11	i	1	-4	2	3
- Cc1cnccc1CNC(=O)CC1C(=O)NCCN1CC(C)(C)C (centres undefined)
    1	-2	-7	i	28	26	-5	1
- O=C(Nc1ccnn1C1CCN(C2CCCCC2)CC1)c1cccc(F)c1
    -9	x	-19	i	3	14	-1	4
- CCn1nnc(NC(=O)c2cccnc2Cl)n1
    x	x	-9	i	1	-2	4	6
- COc1ccc(NC(=O)CSCC(=O)Nc2cc(Cl)ccc2N2CCOCC2)cc1
    9	-11	-6	i	x	x	2	1
- CC(NC(=O)CN(c1cccc(C(F)(F)F)c1)S(C)(=O)=O)c1ccccc1 (centres undefined)
    16	-2	-13	i	-8	-3	0	-4
- CCn1cc(CN2CCN(CCC(C)C)C(CCO)C2)c2ccccc21 (centres undefined)
    -3	-3	-11	i	5	-8	3	2

Each structure is followed by: HIV Env fusion	CSC inhib	Yeast UUG start	Rce1 inh	eIF4H inh	PABP polyA inh	MT1-MMP act inh	MT1-MMP act inh RFP
- Cc1cccc(C(=O)NC2CCCc3ccccc32)c1 (centres undefined)
    1	8	x	i	-1	-6	x	x
- Cc1cc(S(=O)(=O)N2CCCCC2CCNC(=O)C(=O)NCC2CCCO2)ccc1F (centres undefined)
    8	-11	8	i	x	x	0	-3
- Cc1ccc(S(=O)(=O)NCC(=O)OCC(=O)Nc2ncc(Cl)cc2Cl)cc1
    x	3	-18	i	8	23	-1	9
- CCN(CC)CCN1CCN(c2cncc(-c3ccc4ccccc4c3)n2)CC1
    10	x	-11	x	x	x	22	10
- COc1cc2cc(Oc3ccc4ccc(=O)oc4c3)c(=O)oc2cc1OC(C)=O
    x	6	-14	i	1	6	8	7
- CCOC(=O)c1c(C)[nH]c(C(=O)OCC(=O)Nc2cc(C)c(Cl)cc2OC)c1C
    -35	7	-15	i	-7	7	-1	-1
- COc1ccccc1OC(C)C(=O)Nc1ccc(S(=O)(=O)Nc2nccs2)cc1 (centres undefined)
    26	-16	-12	x	2	4	-6	-3
- CCCC(=O)NC(=S)Nc1ccc(N2CCN(C(=O)c3cccs3)CC2)cc1
    11	-16	-7	i	-1	0	-7	-12
- CCCCNC(=O)/C(C#N)=C/c1cccnc1
    3	-13	x	i	7	0	0	5
- O=C(/C=C/c1ccc(Br)cc1)NC(=S)NNC(=O)c1ccco1
    22	19	-21	i	10	-1	-1	-2
- COc1ccc(C(=O)NCc2ccc(S(N)(=O)=O)cc2)cc1[N+](=O)[O-]
    13	-7	x	i	7	-8	0	-3
- CN(Cc1c(C(=O)N/N=C/c2ccc(O)cc2)nnn1-c1nonc1N)c1ccccc1
    -40	5	-17	i	x	x	0	2
- C/C(CC(=O)Nc1ccccn1)=N\NC(=O)c1ccc2ccccc2c1
    20	x	x	i	1	10	5	11
- CN(c1ccc(F)cc1)S(=O)(=O)c1ccc(Cl)c(C(=O)NCc2ccco2)c1
    x	-7	-4	x	x	x	-4	1
